# BasE inh: BasE siderophore enzyme inhibitors, primary screen, biochemical, Acinetobacter baumannii ATCC 17978, fluorescence polarization | purified BasE, fluorescence polarization binding displacement | inhibition, % (concentration not given with the values) | 84,000 tested, 0.1% active;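 active = both replicates above 25% with normal brightness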;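 note: 0% = negative plate control signal and 100% = positive plate control signal; stock transfer was 100 nL into about 30 µL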
# KSHV LANA nucl: inhibitors of KSHV LANA-nucleosome binding, primary screen, biochemical, fluorescence polarization, FITC-LANA1-23, chicken nucleosomes. z-score (no concentration beside the values). AID 720717, 2013. FITC-LANA1-23 / chicken nucleosome fluorescence polarization; active compounds read low. 51,000 tested, 0.3% active;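 active = both repeat wells score below -2 in polarization z-score versus plate sample wells, excluding overly bright wells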;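 note: 100 nL library stock added to about 30 µL; numbers are from one replicate; some results filed as inactive read as strong as hits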
#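 test system = FITC-LANA peptide and chicken nucleosomes | amount = 240 nM purified chicken nucleosomes (480 nM peptide binding sites), final | reagent = 50 nM FITC-LANA1-23 probe | medium = TEN-BT buffer, pH 7.5 | doses = single compound addition by pin transfer, 100 nL per well | timing = 10–45 min, room temperature | detection = fluorescence polarization | repeats = duplicate plates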
# * = called active by the depositor; . = no result given; & = joins results of further samples. Not all compounds are listed; count on the stated rates, not on these rows.
SMILES,BasE inh,KSHV LANA nucl
CC(=O)NCc1ccc(C(=O)CSc2nnc(C)n2Cc2ccccc2)o1,-3.1,.
CC1c2nc3ccccc3n2C(CC(=O)NC2CC2)C(=O)N1Cc1ccccc1 (stereo not given),-0.5,0.65
Cc1ccccc1OCc1nc2ccccc2c(=O)n1N,0.5,-0.043
CCn1c(COC(=O)/C=C/c2ccc(Br)o2)nc2cc(S(=O)(=O)N(C)C)ccc21,-1.5,.
Cc1nc(-c2c(C(F)(F)F)oc3cc(O)ccc3c2=O)cs1,0.9,.
ONC=NCc1ccccc1OC(F)(F)F,1.9,0.4
CCCn1c(=O)c2ccccc2n2c(SCC(=O)/C(C#N)=C(\C)N)nnc12,0.0,.
CCOC(=O)/C=C1\SCC(=O)N1CC(=O)Nc1cc(C(F)(F)F)ccc1N1CCOCC1,-0.3,.
COC(=O)c1cc(C#N)c(SCC#N)nc1C(OC)OC,-1.1,.
FC(F)(F)c1cnc(SCc2ncc(-c3ccccc3)o2)c(Cl)c1,-0.1,.
Cc1nccn1-c1ccc(C(F)(F)F)cn1,0.1,0.16
CC(C)=CCCC(C)N1CC23C=CC(O2)C(C(=O)O)C3C1=O (stereo not given),1.9,-0.48
CC(C)NC(=O)c1ccc(COCC(F)(F)C(F)F)o1,0.8,1.1
O=C(Cn1c(=O)c(F)cn(C2CCCO2)c1=O)Nc1cccc(I)c1 (stereo not given),-2.4,.
Cc1cc2c(cc1S(=O)(=O)N1CCN(c3ccccc3)CC1)OCCN2C,0.5,-0.91
CCN(CC)CCOCCOC(=O)C1(c2ccccc2)CCCC1,-1.0&-0.1,0.02&0.095&-0.009
CCCNC(=O)C12CC3CC(CC(C3)C1)C2,2.2,-1.1
CCOC(=O)c1[nH]c(COC(=O)C2CC(=O)N(Cc3ccccc3)C2)c(C(=O)OCC)c1C (stereo not given),1.0,.
CC(=O)N/C(=C\c1ccccc1)C(=O)O,1.4,1.2
Cc1ccc(/C=C2\CC(C)CC3=C2NC(=S)NC3c2ccc(C)cc2)cc1 (stereo not given),0.1,.
Cc1noc(C)c1COc1ccc(C(=O)OCC(=O)N2CC(=O)Nc3ccccc32)cc1,-4.2,.
Cc1cc(N(C(=O)c2cc3c(s2)CCC3)C(=O)c2cc3c(s2)CCC3)no1,1.5,.
Cc1ccc(N2N=NC3CCC(C4=CCCC4)C32N2CCOCC2)cc1C (stereo not given),-1.5,.
CCOC(=O)c1c(C)nn(-c2ncccc2C(F)(F)F)c1C,.,1.3
CCCNC(=O)N1c2ccc(F)cc2CCC1C (stereo not given),0.7,-0.7
SMILES,BasE inh,KSHV LANA nucl
CCOc1cc(C(=O)NC(=S)Nc2cccc(-c3ccc(CO)o3)c2)cc(OCC)c1OCC,-1.8,-0.49
Clc1ccc(-c2nnc(-c3ccc(Cl)cc3)o2)cc1,1.8,.
O=C(NC(=S)N1CCCCC1)c1ccccc1,-0.7,.
CSC(=C(C#N)C#N)N1CCOCC1,-0.1,.
NNC(=O)c1cc2ncc(C(F)(F)F)cc2s1,0.7,-0.79
COC(=O)Nc1ccc2c(c1)CCCN2S(=O)(=O)c1ccc(C)cc1,0.1,-1.5
Cn1c(=O)c2nc(SCC(N)=O)n(C)c2n(C)c1=O,0.9,1.2
CCSC1=NCCN1C(=O)c1ccc2c(c1)OCO2,0.7,-0.19
COc1cccc(Nc2nnc(SCC(=O)c3cc(C)n(C)c3C)s2)c1,0.0,.
O=c1c2ccccc2[nH]c(=S)n1C1CC1,0.8,-0.025
COCCn1c(O)c(/C(C)=N/c2sc3c(c2C#N)CCC3)c(=O)[nH]c1=S,-9.0,.
Cc1ccc(CNC(=O)c2ccc(CN(Cc3ccccc3)C(=O)Nc3ccccc3)o2)o1,-1.1,0.81
c1ccc(-c2cc3n(c2)CCc2ccccc2-3)cc1,0.9,-0.062
CC1=C(c2sc(-c3ccccc3)nc2-c2cccs2)C(=O)OC1,-8.3,.
Cn1c(CC(N)=S)nc2ccccc21,-0.8,.
CSCCC1C2=C(CC(C)(C)CC2=O)Nc2c1c(C)nn2-c1nc2ccccc2s1 (stereo not given),3.1,.
Cc1c(Cl)cccc1NC(=O)CC(NCCN1CCOCC1)C(=O)O (stereo not given),2.8,-0.24
O=C(COc1ccccc1)NCc1nc2ccccc2[nH]1,0.5,2.3
Cc1ccccc1N=Cc1c(O)[nH]c2ccccc12,1.1,.
COc1ccc(-n2c(CC#N)nnc2SCc2c(C)c(C)c(C)c(C)c2C)cc1,0.4,.
O=C(O)CCCNc1n[nH]c(=O)[nH]c1=O,4.3,.
CCC(NC(=O)Nc1cc(C)ccc1OC)c1c(-n2cccc2)sc2c1CCN(C)C2 (stereo not given),1.9,0.48
Cc1cc(N=NC(=O)c2ccccc2)ccc1O,1.3,-0.34
N#Cc1cnc(Sc2nnc(-c3ccco3)n2-c2ccccc2)nc1N,0.8,0.34
O=C(/C=C/c1ccccc1)N(c1ccccn1)C1CCCCC1,-5.4,1.2

# 2 entries from above, as tab-separated lines:
compound	BasE inh	KSHV LANA nucl
CCSC1=NCCN1C(=O)c1ccc2c(c1)OCO2	0.7	-0.19
Cn1c(CC(N)=S)nc2ccccc21	-0.8	.

# 3 entries out of the list above, sorted by their value in KSHV LANA nucl, low to high:
Molecule,KSHV LANA nucl
N#Cc1cnc(Sc2nnc(-c3ccco3)n2-c2ccccc2)nc1N,0.34
Cc1ccc(CNC(=O)c2ccc(CN(Cc3ccccc3)C(=O)Nc3ccccc3)o2)o1,0.81
Cn1c(=O)c2nc(SCC(N)=O)n(C)c2n(C)c1=O,1.2

# (listing goes on)
SMILES,BasE inh,KSHV LANA nucl
CC(C)(C)N1C(=O)NC(=O)/C(=C\c2cn(Cc3ccccc3)c3ccccc23)C1=O,2.6,.
COCCNC(=S)c1ccc(N(C)C)cc1,0.3,.
CC(Nc1nc(Nc2ccc(F)cc2)nc(SCC(=O)Nc2ccc(F)cc2)n1)c1ccccc1 (stereo not given),2.9,.
CCN(CC)c1nc(N)c2c(N)n(-c3ccccc3C)c(=S)c(C#N)c2c1C#N,-0.5,.
CC(C)S(=O)(=O)c1csc(C(=O)N/N=C/C(C)(C)C)c1-n1cccc1,-0.1,0.44
CN1CCN(C(=O)CN2C(=O)/C(=C/c3ccccc3)Sc3ccccc32)CC1,-0.6,-0.18
Cc1oc2ccc(O)c(CN(C)Cc3ccccc3)c2c1C(=O)NCc1ccccc1,0.1,0.69
O=c1[nH]cc(N=Cc2ccncc2)c(=O)[nH]1,-0.4,.
N#CC1(C(=O)O)CCCC1,0.2,.
COc1cc2nc(SCC(=O)NC3CC3)n(CCC3=CCCCC3)c(=O)c2cc1OC,1.6,.
Cn1ncc(SCC(=O)O)c(Cl)c1=O,1.3,-1.4
COc1ccc(N2CCN(C(=O)N3c4ccccc4Sc4ccccc43)CC2)cc1,-0.1,0.42
COc1cc(CN2CCC(Cc3ccccc3)CC2)cc(OC)c1O,-0.3,0.41
N#Cc1ccc(Oc2ccc(F)cc2)cc1,.,0.55
Cc1cc(NC(=O)NCC(O)c2ccccc2)c(C(F)(F)F)o1 (stereo not given),1.9,-0.48
CCOc1ccccc1C(=O)NCC(=O)N1CCC(C)CC1,-0.6,.
COCC(=O)N(Cc1cc2cc3c(cc2nc1Cl)OCO3)CC1CCCO1 (stereo not given),-0.5,0.59
Cc1ccc(OC(=O)C23CC4CC(CC(C4)C2)C3)cn1,-1.4,3
N#Cc1c(N)nc2c3c1NC(O)(c1ccccc1)C(C#N)C3c1cc(Br)ccc1O2 (stereo not given),1.2,.
CCOC(=O)c1c[nH]c2c(F)cc(F)cc2c1=O,.,-0.26
O=C(c1cnccn1)N(c1ccccc1)C1(C(=O)NC2CCCCC2)CCCCC1,10,0.26
O=C(CCn1cnc2onc(-c3ccc(F)cc3)c2c1=O)N1CCCCCC1,-0.7,.
CSc1nccc(-c2c(-c3ccc(Cl)cc3)noc2C)n1,1.3,.
CN(C)c1ccc(NC(=S)c2ccccn2)cc1,-0.3,1.1
O=S(=O)(c1ccc(F)cc1)n1cccc1,2.1,-0.56
SMILES,BasE inh,KSHV LANA nucl
CC(C)(C)OC(=O)N1CCCN(S(=O)(=O)c2ccc3c(c2)CCO3)CC1,-0.7,0.31
Cc1cc(C(=O)COC(=O)/C=C/c2cccs2)c(C)n1C1CC1,0.4,.
CCN(CC)C(=O)Cn1c(=O)cc(C)c2c(C)nn(-c3cccc(F)c3)c21,0.4,0.13
COc1ccc2c(c1)c1ncn(CCN3CCN(Cc4ccccc4)CC3)c(=O)c1n2C,-6.2,1.9
Cc1ccc2[nH]cc(CCNC(=O)CN3CCCn4nc(C)cc43)c2c1,1.6,0.16
Cc1nn(Cc2ccccc2)c(Cl)c1C(=O)OCc1nc2ccc(Cl)cc2n1CCO,1.2,.
Cc1cccc(NC(=O)Cn2c(C(F)(F)F)nc3ccccc32)c1,.,-0.33
CCOC(=O)c1cc(C)nc(Sc2ccccn2)c1C#N,3.0,.
Cn1c(CN2C(=O)CSc3ccc(C(F)(F)F)cc32)nnc1SCc1ccccc1,-1.2,.
O=C(COc1ccccc1)NCC(=O)NC1CCCCC1,1.9,.
Cc1cc(/C=C2/C(=N)N3C(=NC2=O)SN=C3S(=O)(=O)CC(C)C)c(C)n1-c1ccc(F)cc1,0.5,-0.28
CCc1c(C)sc(NC(=O)CN2CCN(c3ncccn3)CC2)c1C(=O)OC,2.7,0.18
O=C(Nc1cc2c3c(c1)CC(=O)N3CCC2)c1ccccc1,1.6,-1.4
O=C(NCCSc1ccccc1)c1cc(-n2cnnc2)ccc1Cl,-3.0,-0.15
N#Cc1ccsc1NC(=O)CC1(CC(=O)O)CCCC1,0.7,.
COc1c2occc2cc2ccc(=O)oc12,-1.8&-1.7,-0.69&-0.45&-0.48
O=C(Nc1sc2c(c1C(=O)c1ccccc1)CCCC2)c1ccco1,0.0,0.34
CCN(C(=O)C1c2ccccc2Oc2ccccc21)c1ccccc1,0.2,.
CC1CCN(C(=O)c2ccc3c(c2)NC(=O)CN3)CC1,0.1,1.2
COc1ccc(C(=O)NCc2cccnc2)cc1S(=O)(=O)N1CCCc2ccccc21,-2.2,.
COc1ccc2c(-c3ccccc3)cc3nnnn3c2c1,-4.5,.
CCCCCCSc1n[nH]c(=O)[nH]c1=O,1.7,-0.43
Cc1ccc(CN2CCC(CNC(=O)Nc3ccccc3)CC2)cc1,1.6,0.044
CCOC(=O)C1CCN(C(=O)CN2CCN(c3ccccc3O)CC2)CC1,-1.8,.
O=C(N1CCN(CCO)CC1)N1c2ccccc2C=Cc2ccccc21,-3.1,1.1

# Compound profiles (already shown):
# Cc1cc(C(=O)COC(=O)/C=C/c2cccs2)c(C)n1C1CC1 as listed: BasE inh: 0.4; KSHV LANA nucl: .
# CCOC(=O)c1cc(C)nc(Sc2ccccn2)c1C#N as listed: BasE inh: 3.0; KSHV LANA nucl: .
# Cc1cc(/C=C2/C(=N)N3C(=NC2=O)SN=C3S(=O)(=O)CC(C)C)c(C)n1-c1ccc(F)cc1 as listed: BasE inh: 0.5; KSHV LANA nucl: -0.28

# The listing continues.
SMILES,BasE inh,KSHV LANA nucl
COCCNS(=O)(=O)c1ccc2oc(=O)c3ncn(C)c3c2c1,2.7,-0.14
N#CCN(CC#N)C(=O)CSc1ccccc1,-1.0,0.015
CSCCn1c(-c2ccccc2)cc(C(=O)N2CCCC2)c1C,1.3,.
O=C(Cc1coc2ccc3ccccc3c12)Nc1cc(C(F)(F)F)ccc1-n1cncn1,1.2,.
NC(N)=NS(=O)(=O)c1ccc2[nH]c(=O)oc2c1,-0.3,0.22
CC1=NNC(=O)C1CC(=O)N/N=C(/C)c1ccccc1 (stereo not given),1.9,-1.1
Cc1cc(NC(=O)C(NC(=O)c2ccc(F)cc2)C23CC4CC(CC(C4)C2)C3)no1 (stereo not given),2.8,0.79
COc1ccc(/C(O)=C/c2nc3cc(C)ccc3oc2=O)c(OC)c1,12,.
O=C1C(Cc2ccc(O)cc2)NC(=S)N1Cc1ccccc1 (stereo not given),0.2,-0.97
Cc1ccc(NC(=O)/C(C#N)=N/Nc2ccc(C(=O)O)cc2)c(C)c1,3.9,.
CCOC(=O)CSc1nc2ccc(OCC)cc2[nH]1,-0.3,.
O=C(O)COc1cc(C(F)(F)F)cc(C(F)(F)F)c1,2.1,.
Cc1cc(N2CCCC2c2nc3ccccc3s2)n2ncnc2n1 (stereo not given),-1.4,.
O=C(Oc1ccc(-c2nnco2)cc1)C1CCN(S(=O)(=O)c2ccccc2C(F)(F)F)CC1,1.9,.
NC(=O)CSCC(=O)Nc1ccccc1F,2.1,0.32
O=C1CC(C(=O)Nc2ccccc2)C2(CCCC2)O1 (stereo not given),3.9,0.59
COc1ccc2c(C)cc(=S)[nH]c2c1,0.2,.
CCOC(=O)c1cc2occc2n1C(C)C(=O)OCC (stereo not given),-11,0.66
CCC1(C)Cc2c(C#N)c(N)sc(=S)c2CO1 (stereo not given),1.2,.
CC(NS(=O)(=O)c1ccccc1C#N)C1CC2CCC1C2 (stereo not given),2.6,.
NC(=O)C1CCN(C2=NS(=O)(=O)c3ccccc32)CC1,-1.2,.
COc1cc(C(=O)N2CCn3c(C)ccc3C2C)cc(OC)c1OC (stereo not given),0.7,0.24
